Bead autofluor – counter-screen for toxin protease inhibitors: compound fluorescence; compound autofluorescence counterscreen, microsphere flow cytometry; active compounds read high; AID 624483; 3.1% of 360,000 active; fluorescence intensity (no concentration beside the values);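 active = at least 3 SD above the mean of all compounds, about 16000 in these data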;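 note: 100 nL of 1 mM stock went into each well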
Mtb hypoxia inh – reduces hypoxia-regulated biosensor signal in M. tuberculosis | M. tuberculosis hypoxia-regulated fluorescent reporter, fluorescence | fluorescence inhibition, % (no concentration beside the values) | 0.1% of 300,000 active | AID 1159583;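 active = 35 to 45% if threefold the growth effect, above 45% if 1.5-fold the growth effect; inactive = the rest, general growth blockers included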;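 note: wells of about 50 µL received 100 nL stock; 0% = vehicle wells and 100% = reference inhibitor wells; whole bacteria with a GFP reporter of the hypoxia response; strong numbers were not always called active; many hits fall short of the cut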
ugtP null kill – compounds lethal to S. aureus RN4220 ugtP deletion mutant; growth inhibition, % (concentration not given with the values); OD600 growth, 16 h; some inactives read as strong as hits; AID 1259309; 0.54% of 330,000 active;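 active = z-score under -3 and OD600 up to 0.15 on both plates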;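 note: plate controls were untreated wells for no effect and antibiotic for full effect; wells of about 80 µL received 100 nL stock; the first replicate is given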
BJeLR lethal – BJeLR cell viability loss. 0.17% of 300,000 active. inhibition, % (test concentration not listed). BJeLR (HRASV12) viability, CellTiter-Glo ATP luminescence, 48 h; reference of the scale not given here;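 active = replicate mean above 50%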;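 note: 50 nL library stock added to about 25 µL; numbers are from one replicate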
PrP UTR inh – inhibition of PrP 5' UTR reporter expression | inhibition, % (no concentration beside the values) | 0.35% of 340,000 active | cell-based PrP 5' UTR mRNA reporter, plate reader;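 active = every replicate at 50% or more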;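 note: 0 = median of the neutral control wells; tested in H4 reporter cells; numbers are from one replicate; inactives centre near -14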
RN4220 kill – S. aureus RN4220 growth inhibition; 0.33% of 330,000 active; OD600, 16 h; AID 1259311; inhibition, % (concentration not given with the values);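 active = z-score of -3 or lower and OD600 up to 0.18 on both plates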;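 note: plate controls were untreated cells for no effect and reference antibiotic for full effect; stock transfer was 100 nL into about 80 µL; one replicate is shown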
Mtb hypoxia inh growth – second read-out of Mtb hypoxia inh, no call of its own (marks repeat the call); growth inhibition, %; measured here: M. tuberculosis growth (absorbance);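 0% = vehicle and 100% = reference antibiotic; read after six days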
Starred values were filed as active, the others as inactive; x = not tested or not shown.

structure | Bead autofluor | Mtb hypoxia inh | Mtb hypoxia inh growth | ugtP null kill | BJeLR lethal | PrP UTR inh | RN4220 kill
O=S(=O)(NCCC1=CCCCC1)c1ccc(OC(F)(F)F)cc1 | 5197 | -1 | -1 | -5 | 1 | -33 | 2.1
Cn1c(=O)c(C(=O)N2CCc3ccccc32)cc2cccnc21 | 6039 | 2 | 3 | 3 | -11 | -27 | 4.3
C=CCOc1c(CNc2cccc(C(=O)O)c2)cccc1OCC | 11235 | 9 | 2 | -8 | 3 | -25 | 5.1
CSc1nc2ccccc2cc1/C=C(\C#N)c1ccccc1 | 3349 | x | x | 13 | -3 | -9 | -0.7
COc1ccc(N2CCCn3c2nc2c3c(=O)n(CCN3CCOCC3)c(=O)n2C)cc1 | 2836 | x | x | x | -8 | -16 | x
O=C1CC(N2CCC(Cc3ccccc3)CC2)C(=O)N1CCc1ccccc1 (stereo not given) | 9016 | 1 | -2 | 23 | -4 | -14 | 9.8
CCC(=O)c1ccc(OCC(O)CNCCc2ccc(Cl)cc2)cc1 (stereo not given) | 3314 | 9 | 14 | -4 | 9 | -19 | -2.7
O=C(NCc1ccc(F)cc1)C1CCN(S(=O)(=O)c2cccc3nonc23)CC1 | 3669 | 9 | 9 | 3 | -6 | -10 | 4.5
CC1CCN(C(=O)c2[nH]cnc2C(=O)NCC(=O)OCc2ccccc2)CC1 | 3884 | x | x | x | 4 | -15 | x
CNc1nc(NCc2ccccc2)nc(N)c1[N+](=O)[O-] | 5189 | 1 | -4 | 4 | 4 | 2 | 0.2
CCC(=O)c1ccc(OCC(=O)O)cc1 | 3030 | -16 | -13 | 16 | -4 | -16 | 18
O=C(CSc1nnc(-c2ccccc2)c2ccccc12)NCC1CCCO1 (stereo not given) | 4447 | 9 | 8 | 5 | -4 | -7 | 9.3
O=C(O)COc1ccccc1/C=C1\SC(=S)N(NC(=O)c2ccccc2O)C1=O | 4047 | 2 | 11 | -17 | 4 | -28 | -2.1
CCc1cccc(NS(=O)(=O)c2ccc3c(c2)oc(=O)n3C)c1 | 9880 | 4 | -1 | 10 | 2 | -12 | 7.7
CCN(C[C@H]1N[C@@](Cc2ccccc2)(C(=O)OC)[C@H]2C(=O)N(Cc3ccccc3)C(=O)[C@@H]12)C(=O)NC(C)C | 3845 | 0 | -2 | 0 | x | -21 | 1.0
CCOCCc1nnc(NC(=O)CN2C(=O)c3ccccc3C2=O)s1 | 5881 | 6 | -1 | 1 | -6 | -20 | 1.7
COc1ccccc1NC(=O)CN(Cc1ccco1)C(=O)c1ccc(=O)[nH]c1 | 4620 | 2 | 10 | 3 | 5 | -17 | 3.6
NC(=O)NCc1cccs1 | 4735 | 2 | 4 | 4 | 1 | -21 | -1.0
CCOc1ccc(C(=O)CN2CCN(S(=O)(=O)c3ccc(OC)cc3)CC2)cc1 | 2586 | x | x | -11 | 7 | -26 | -1.0
Cc1ccc(-n2cc[nH]c2=S)c(C)c1 | 4638 | 6 | 1 | -2 | 3 | -28 | 2.6
Cc1cc(=O)oc2cc(NC(=O)c3ccnn3C)ccc12 | 5479 | 3 | 1 | -2 | -4 | -71 | -1.5
O=S(=O)(NCC1CCCO1)c1ccc(Br)s1 (stereo not given) | 4723 | x | x | 4 | 9 | -3 | 0.9
CCc1nc2ccccc2c(C(=O)OCc2nc3ccccc3c(=O)[nH]2)c1C | 4201 | 1 | 2 | -5 | x | -27 | 2.2
Cc1cc(C)c2c(N)c(C(=O)c3ccc(Cl)cc3)sc2n1 | 2536 | 2 | 6 | -17 | 4 | -23 | 2.1
CCn1c(SCc2ccc(F)cc2)nc2ccccc2c1=O | 3321 | 3 | -6 | 0 | -7 | -31 | 3.2
O=C(c1cccc(F)c1)N1CCC(O)(c2cccnc2)CC1 | 4074 | 11 | 14 | -1 | 1 | -3 | 1.6
COc1ccnc(Oc2ccc(F)cc2)c1C#N | 3681 | 13 | 4 | 3 | 10 | -48 | 3.0
CCCCn1c(SCC(=O)c2c(N)n(C3CC3)c(=O)[nH]c2=O)nc2cc(S(N)(=O)=O)ccc21 | x | 13 | 2 | 10 | x | -6 | 1.8
Cc1ccc(NS(=O)(=O)c2cccc(C(=O)N3CCCCC3)c2)cc1 | 3695 | 2 | 2 | 0 | x | -23 | 4.6
COc1ccc(C(=O)OCc2cc(=O)n3ccsc3n2)cc1F | 3466 | 3 | 12 | 8 | x | -45 | 4.4
COc1cc(NC(=O)C2CCCO2)c(OC)cc1NC(=O)c1ccccc1 (stereo not given) | 2601 | x | x | -3 | 3 | -3 | 2.7
COC(=O)c1ccc(CSc2nnc(Nc3cccc(OC)c3)s2)o1 | 2683 | x | x | -4 | -6 | -13 | 2.5
CCOC(=O)c1cc2c(=O)n3cccc(C)c3nc2n(Cc2ccco2)c1=NC(=O)c1cccnc1 | 5003 | -18 | 3 | -11 | x | -5 | -6.6
CCn1c(-c2nn(C)c(C)c2Cl)n[nH]c1=S | 4192 | 9 | 4 | 3 | 5 | -15 | 3.6
COc1ccc(C=NNc2nc(-c3ccc(C)cc3)c(NC(C)=O)s2)cc1OC | x | 17 | 14 | 11 | x | x | 2.9
COc1ccc(-n2nnnc2SCC(N)=O)cc1 | 3783 | 4 | 1 | 0 | -11 | -4 | -0.6
Nc1c(C(=O)Nc2ccccc2F)sc2nc(-c3ccco3)ccc12 | 10142 | 2 | 2 | -5 | 7 | x | -3.8
O=C(COC(=O)c1ccc(S(=O)(=O)N2CCCC2)cc1)Nc1ccc(N2CCOCC2)cc1 | 3861 | 8 | -2 | 5 | 13 | -25 | 5.2
Cc1ccc(F)cc1S(=O)(=O)NCc1ccc(N2CCN(C)CC2)cc1 | 6218 | -1 | 4 | 7 | -6 | x | 5.7
CCCCCn1nc(C(=O)N(CC)c2c(N)n(CCCC)c(=O)[nH]c2=O)c2ccccc2c1=O | 3891 | -12 | -4 | -6 | x | -26 | -5.2
Cc1cc(C)n(Cc2cc(C(=O)O)c3ccccc3n2)n1 | 4176 | 0 | -2 | 3 | 4 | -6 | -1.0
CC(=O)Nc1ccccc1NC(=O)C/C(C)=N/NC(=O)c1ccncc1 | 1961 | x | x | x | -5 | -11 | x
COc1cc(OC)cc(C(=O)Nc2ccc(Nc3ccccc3)cc2)c1 | 3348 | 4 | 4 | 12 | -25 | -36 | -7.8
O=C(CCNC(=O)Cn1ccc2ccccc2c1=O)NCc1ccc(F)cc1Cl | 4287 | 13 | 5 | 5 | 5 | -1 | 8.2
O=C(COC(=O)c1ccccn1)Nc1cccnc1Cl | 7573 | 9 | 1 | 19 | 7 | -23 | 4.5
Cc1cccn2c(=O)c3cc(C(=O)NC4CCCC4)c(=N)n(CCCN4CCOCC4)c3nc12 | 5760 | 0 | -2 | 5 | 7 | -22 | 4.3
O=C(CN1C(=O)C2CC=CCC2C1=O)NCc1ccc2c(c1)OCO2 (stereo not given) | 2334 | x | x | 3 | 8 | -6 | -1.8
CC(=O)c1nc(N2C(=O)CC(Cc3cc(C)cc(C)c3)C2=O)sc1C (stereo not given) | 2484 | 4 | 7 | 7 | 1 | -31 | 2.9
O=C(O)CC(C(=O)O)c1cn(Cc2ccccc2)c2ccccc12 (stereo not given) | 2926 | 9 | 9 | -4 | -8 | -20 | -16
Cc1c(NC(=O)CSc2nncn2-c2ccccc2)c(=O)n(-c2ccccc2)n1C | 4450 | 5 | 0 | 0 | -2 | 3 | 4.1
Cc1noc(/C=C/N(C)C)c1S(=O)(=O)N1CCCC(C(=O)NC(C)c2ccccc2)C1 (stereo not given) | 10502 | 3 | 3 | 4 | 6 | -35 | 1.0
CC(=O)Oc1ccc(-c2cccc(C(=O)NCC(=O)O)c2)cc1 | 23862* | 6 | 1 | -3 | -9 | -24 | 1.7
C=CCc1cc(/C=N/n2cnnc2)cc(OCC)c1O | 9639 | x | x | x | -12 | -7 | x
COc1cc2c(cc1OC)C1C(=O)c3ccc4c(c3OC1CO2)CC(C(C)C)O4 (stereo not given) | 3168 | 7 | 2 | 4 | x | 7 | 10
COc1cccc(NC(=O)CN2C(=O)COc3ccc(S(=O)(=O)N4CCOCC4)cc32)c1 | 5844 | -4 | 4 | -1 | -1 | -4 | 0.6
COc1cc(C(C)=O)ccc1OCC(O)CN(CCO)Cc1ccccc1 (stereo not given) | 4415 | 12 | 5 | 2 | 0 | -23 | 4.3
O=c1[nH]c2ccccc2c(O)c1Cc1ccccc1 | 3243 | 9 | 23 | 8 | -13 | -15 | 1.2
Cc1ccc(-n2nc(C)c3cc(C(=O)O)sc32)cc1 | 3567 | -8 | 8 | -3 | -3 | -3 | -1.4
C/C(=N\N=C(N)N)c1ccc(Cl)cc1 | 1922 | x | x | x | 3 | -10 | x
CCCn1c2ccccc2c2cnn(CC(=O)NC3CCN(Cc4ccccc4)CC3)c(=O)c21 | 5671 | 13 | 10 | 7 | 9 | -19 | 3.9

Later entries.
structure | Bead autofluor | Mtb hypoxia inh | Mtb hypoxia inh growth | ugtP null kill | BJeLR lethal | PrP UTR inh | RN4220 kill
Nc1ccc(Nc2nc(-c3cccs3)cs2)cc1 | 4318 | -9 | -12 | 4 | -29 | -135 | 1.1
Cc1ccc(-c2ccc(=O)n(CC(=O)N3CCN(c4cccc(C)c4)C(C)C3)n2)cc1 (stereo not given) | 10366 | 4 | 7 | -4 | -2 | 13 | -0.8
CSCc1ccc(C(=O)N2CCCC(Nc3ccc(F)cc3)C2)o1 (stereo not given) | 4144 | -3 | -6 | 14 | 1 | -22 | 2.9
CCn1nc(C(=O)OCC(=O)N2CC(=O)Nc3ccccc32)c2ccccc2c1=O | 2584 | -4 | 3 | 0 | -10 | -16 | 0.3
C/C=C(\C)CN1CCC(n2nccc2NC(=O)CCCc2ccccc2)CC1 | 4922 | 14 | 6 | 1 | -2 | -30 | 0.9
Cc1ccc2[nH]c(=O)c(CN(CCc3ccccc3)C(c3nnnn3Cc3ccco3)C(C)C)cc2c1 (stereo not given) | 4893 | 13 | 0 | -24 | 8 | -17 | -8.5
CN=c1scc(C)n1/N=C/c1cc(Br)c(O)c(Br)c1 | 4294 | x | x | x | 21 | -12 | x
S=C(c1ccc(-c2ccc(Br)cc2)o1)N1CCCCC1 | 3913 | 14 | 16 | 7 | -7 | -51 | 12
O=C(CSc1ccccc1)NCCCc1ccccc1 | 3934 | 3 | -2 | -1 | -10 | -23 | 2.0
CN(C)C(=O)CCc1ccc2c3c([nH]c2c1)[C@]1(CCc2ccccc2)[C@@H](C(=O)N2CCCCC2)C[C@H](CC(=O)NCCCn2ccnc2)C(=O)N1CC3 | 3575 | -12 | 7 | 1 | x | -14 | -2.6
Nc1nonc1-n1nnc(C(=O)N/N=C/c2ccc(O)cc2)c1COc1ccc(F)cc1 | 4979 | x | x | x | 10 | -8 | x
CCOC(=O)C1(Cc2ccccc2C)CCCN(C(=O)c2cc(C3CC3)[nH]n2)C1 (stereo not given) | 2623 | 4 | 5 | 0 | -17 | 5 | 8.3
CC(=O)Nc1ccc(S(=O)(=O)N[C@@H](C)C(=O)Nc2ccc(N3CCOCC3)cc2)cc1 | 2162 | x | x | -5 | -4 | -8 | 3.3
CC(NC(=O)C(=O)N1CCCCC1)C(c1cccs1)N1CCN(c2ccccc2F)CC1 (stereo not given) | 4442 | 2 | -4 | -3 | 8 | -9 | 1.0
O=C(COC(=O)CCC1CCCC1)Nc1ccccc1Sc1ccccc1 | 2036 | -7 | -2 | 0 | -8 | -29 | -2.7

Source: PubChem
